Screens deposited in PubChem by Johns Hopkins Ion Channel Center.
KCNQ2 inh – KCNQ2 potassium channel inhibitors, primary screen, cell-based, CHO-K1, FluxOR thallium flux, B-score (AID 2156). O88943. 20 min; hits give low values; only compounds with negative scores are shown here; some inactives read as strong as hits. B-score at 10 µM. actives 1.1% (n = 310,000);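 active means fluorescence ratio B-score at most minus 3 library SDs, with starting brightness B-score within 2 library SDs, cut at about -5.5 in these data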
Target sequence (O88943 whole entry, looked up): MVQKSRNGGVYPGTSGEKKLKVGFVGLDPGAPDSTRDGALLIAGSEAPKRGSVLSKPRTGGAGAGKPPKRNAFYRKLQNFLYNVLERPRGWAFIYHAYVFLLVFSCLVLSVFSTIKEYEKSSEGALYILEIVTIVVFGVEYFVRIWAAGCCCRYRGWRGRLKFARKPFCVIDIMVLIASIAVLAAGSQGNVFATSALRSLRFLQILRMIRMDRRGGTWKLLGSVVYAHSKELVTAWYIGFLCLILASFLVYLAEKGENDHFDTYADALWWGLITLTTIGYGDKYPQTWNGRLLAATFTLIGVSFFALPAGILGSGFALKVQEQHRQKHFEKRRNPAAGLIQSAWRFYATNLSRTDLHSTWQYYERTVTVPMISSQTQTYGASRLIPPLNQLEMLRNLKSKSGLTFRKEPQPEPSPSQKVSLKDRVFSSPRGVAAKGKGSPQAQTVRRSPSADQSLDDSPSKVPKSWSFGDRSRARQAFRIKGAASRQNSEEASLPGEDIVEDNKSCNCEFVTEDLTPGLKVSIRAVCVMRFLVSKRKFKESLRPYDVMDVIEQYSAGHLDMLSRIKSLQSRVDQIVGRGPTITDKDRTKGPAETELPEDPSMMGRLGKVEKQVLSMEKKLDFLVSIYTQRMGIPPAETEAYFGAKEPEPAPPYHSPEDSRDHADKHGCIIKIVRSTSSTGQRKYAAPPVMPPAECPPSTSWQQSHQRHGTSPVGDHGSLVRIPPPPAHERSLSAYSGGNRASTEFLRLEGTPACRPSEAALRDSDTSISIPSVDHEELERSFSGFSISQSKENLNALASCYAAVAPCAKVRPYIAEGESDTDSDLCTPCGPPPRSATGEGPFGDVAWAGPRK
KCNQ2 inh baseline – recorded beside KCNQ2 inh, whose call it bears; B-score; measured here: initial fluorescence intensity artifact check;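 brightness before thallium and not channel activity; 0 = typical well and far values either way flag optical interference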
* marks the source's active call; other numbers are inactive results; i = inactive.

SMILES	KCNQ2 inh	KCNQ2 inh baseline
COc1cc(OC)c(-c2nc3c[n+](CC(=O)c4ccccc4)ccc3n2C)cc1OC	i	-0.03
COc1ccc(CCNC(=O)CN(c2ccccc2OC)S(=O)(=O)c2ccc(C)cc2)cc1	i	0.95
CC(=O)Nc1ccc(S(=O)(=O)N(C)CC(=O)OCC(=O)NC(C)C23CC4CC(CC(C4)C2)C3)cc1 (stereo not given)	i	-1.39
CCOC(=O)/C=C(C)\C=C\c1c[nH]c2ccccc12	i	0.94
Oc1nc(Nc2cccc(Cl)c2)sc1/C=C1\C=Nc2ccccc21	i	-2.01
CCSc1nnc(NC(=O)CSc2nnc(C)c(=O)n2N)s1	i	-0.84
C/C(N)=C(/C#N)C(=O)COC(=O)CNS(=O)(=O)c1ccc(C)cc1	i	-0.01
CC(=O)c1c(C)n(-c2ccccc2)c2ccc(O)cc12	i	-0.31
CC1CCN(CC(O)COCCC23CC4CC(CC(C4)C2)C3)CC1 (stereo not given)	i	-0.96
COc1ccc(NC(=O)C2CC(c3cc(OC)c(OC)c(OC)c3)=NO2)cc1OC (stereo not given)	i	0.35
CCOC(=O)c1nnc(-c2ccccc2)[nH]c1=O	i	1.8
CCCCC(c1nnnn1CCOC)N1CCN(c2cccc(OC)c2)CC1 (stereo not given)	i	0.03
Cc1ccccc1Nc1nnc(SCc2nc3ccccc3c(=O)[nH]2)s1	i	-0.39
CCOc1ccccc1N1CCN(C(=S)NCc2ccc(Cl)cc2)CC1	i	-1.63
CC1Cc2ccccc2N1Cc1cccc([N+](=O)[O-])c1 (stereo not given)	i	0.15
Clc1ccc(Cl)c(OCc2cc(-c3ccccc3Cl)on2)c1	i	-2.31
COc1ccc(C2/C=C\CN(C(=O)C3CCCC3)[C@H](Cc3ccccc3)C(=O)N2Cc2ccc(F)cc2)cc1 (stereo not given in full)	i	-0.53
CCC(=O)NCCc1c[nH]c2ccccc12	i	0.02
CCOC(=O)c1[nH]c2ccc(OC)cc2c1NC(=O)CN1CCc2ccccc2C1	i	-0.78
COc1ccccc1CN(CC(=O)NCC1CCCO1)C(=O)CNS(=O)(=O)c1ccc(C)cc1 (stereo not given)	i	-1.07
O=C(CSc1nc2ccccc2c(=O)n1-c1ccc(F)c(Cl)c1)Nc1cccc(S(=O)(=O)N2CCOCC2)c1	i	3.68
Cn1cnnc1Sc1ccc(C(=O)OCC(=O)Nc2ccccc2)cc1[N+](=O)[O-]	i	-1.96
Cc1ccc(S(=O)(=O)N2CC=C(C(=O)NCc3ccccc3)CC2)cc1	i	1.68
Cc1ccc2nc(SCC(=O)c3c[nH]c4ccccc34)[nH]c2c1	i	0.34
Cc1ccc(-c2cccc(NC(=O)C3C4C=CC(C4)C3C(=O)O)c2)o1 (stereo not given)	i	0.55
O=C(NNC(=S)Nc1ccc(Br)cc1)c1cccnc1	i	-0.04
COCc1[nH]nc2c1C(c1sccc1C)C(C#N)=C(N)O2 (stereo not given)	i	0.15
CC(C)CC(=O)Nc1cccc(-c2nc3ccccc3[nH]2)c1	i	-2.37
O=C(N=C1SC2CS(=O)(=O)CC2N1Cc1ccccc1)C1CCCCC1 (stereo not given)	i	-0.02
CCOC(=O)C1CCN(S(=O)(=O)c2ccc3c(c2)CC(C)N3C(=O)C2CCC2)CC1 (stereo not given)	i	1.01
COc1ccc(C(C(=O)NC(C)C)N(C(=O)CCC(=O)Nc2nccs2)c2ccccc2F)cc1 (stereo not given)	i	-0.38
CN1CCN(C2CCCCC2NS(=O)(=O)c2ccccc2)CC1 (stereo not given)	i	2.7
CN(C)C(=O)c1ccc2c3c(cccc13)CC2	i	-0.36
CS(=O)(=O)N(CC(=O)N1CCN(Cc2ccccc2)CC1)C1CCCCC1	i	-0.02
CCOc1ccc(Oc2ccccc2NC(=O)CCNC(C)=O)cc1	i	1.12
Cc1cccc(NC(=O)CS(=O)(=O)c2cn(C)c3ccccc23)c1	i	0.71
CC(C)CCNC(=O)c1onc(CSc2ccc(F)cc2)c1C(=O)NCCC(C)C	i	-0.04
COc1cc(/C=N/n2c(-c3n[nH]c4c3CCC4)n[nH]c2=S)ccc1O	i	0.22
CC(C)[C@H](NC(=O)OCc1ccccc1)C(=O)OCC(=O)NC1CCCCC1	i	-0.29
Cc1cc(CNCc2cn(C)nc2-c2ccc(Oc3ccccc3)cc2)on1	i	-0.77

One compound at a time (already shown):
Record of CN1CCN(C2CCCCC2NS(=O)(=O)c2ccccc2)CC1 (stereo not given) → KCNQ2 inh: i; KCNQ2 inh baseline: 2.7
Record of CS(=O)(=O)N(CC(=O)N1CCN(Cc2ccccc2)CC1)C1CCCCC1 → KCNQ2 inh: i; KCNQ2 inh baseline: -0.02

The main list resumes, starting five compounds before the break.
SMILES	KCNQ2 inh	KCNQ2 inh baseline
Cc1cccc(NC(=O)CS(=O)(=O)c2cn(C)c3ccccc23)c1	i	0.71
CC(C)CCNC(=O)c1onc(CSc2ccc(F)cc2)c1C(=O)NCCC(C)C	i	-0.04
COc1cc(/C=N/n2c(-c3n[nH]c4c3CCC4)n[nH]c2=S)ccc1O	i	0.22
CC(C)[C@H](NC(=O)OCc1ccccc1)C(=O)OCC(=O)NC1CCCCC1	i	-0.29
Cc1cc(CNCc2cn(C)nc2-c2ccc(Oc3ccccc3)cc2)on1	i	-0.77
COC(=O)c1ccccc1NC(=S)NC(=O)c1ccc2c(c1)OCO2	i	-0.9
CC(NC(=O)Nc1ccc(F)cc1F)c1ccncc1 (stereo not given)	i	0.6
CC/C(C)=N/Nc1nc2sc3c(c2c(=O)[nH]1)CC(C)(C)OC3	i	1.32
CC1CN(S(=O)(=O)c2ccc(C(=O)NN3CCN(C)CC3)cc2)CC(C)O1 (stereo not given)	i	0.15
Cc1ccnc(NC(=O)Cc2c(F)cccc2Cl)c1	i	1.11
CC(C)C(=O)N(Cc1ccc(F)cc1)Cc1nc2ccccc2c(=O)[nH]1	i	-0.03
COc1ccc(C(=O)NCCCc2nc3ccccc3n2Cc2ccccc2C)cc1OC	i	-2.68
CCc1ccc(C2C(C#N)=C(N)SC(N)=C2C#N)s1	i	-0.47
COC(=O)[C@@H]1CC[C@H](C)[C@@H](c2ccc(C)cc2)N1C(=O)c1ccc(/C=N/OC[C@@H](O)[C@H]2O[C@@H]3OC(C)(C)O[C@@H]3[C@H]2O)cc1	i	0.13
Cn1c(C(=O)NCCCN2CCN(c3cccc(Cl)c3)CC2)cc2c(=O)n(C)c3ccccc3c21	i	0.01
Cc1nn(S(=O)(=O)c2cccs2)c(C)c1Sc1ccc([N+](=O)[O-])cc1	i	-0.18
CSc1ccc(CNc2cccc3ccccc23)cc1	i	3.42
Cc1cccc(N2CCN(S(=O)(=O)c3c(C)[nH]c(C)c3C(=O)N3CCCC3)CC2)c1C	i	0.96
O=C(Cn1nnc2ccccc21)C1CC1	i	0.56
CC(=O)Nc1cc2c(cc1[N+](=O)[O-])OCCO2	i	0.17
CCc1nnc(NC(=O)CSc2nc3c([nH]c4ccccc43)c(=O)n2CCOC)s1	i	0.44
COc1cc(C(=O)NNC(=O)Cc2ccc(S(=O)(=O)N3CCOCC3)s2)cc(OC)c1OC	i	-0.32
Cc1cc(C)nc(-n2nc(C)cc2NC(=O)CNC2CCCCC2)n1	i	0.03
COc1ccc(C(=O)Nn2cnnc2)cc1OC	i	-0.09
O=c1c2ccccc2ncn1CCCSc1ccc(Cl)cc1	i	-0.07
Cc1ccc(-n2nc(C(=O)N/N=C/c3cccc(C(F)(F)F)c3)c3ccccc3c2=O)cc1C	i	2.12
O=C(NC1CC2CCC(C1)N2Cc1ccco1)c1ccccc1 (stereo not given)	i	0.4
CCSc1nnc([C@@H](NC(=O)OC(C)(C)C)C(C)C)o1	i	-0.08
O=C(CNC(=S)NC(=O)c1ccccc1Br)c1ccccc1	i	-0.06
O=C(Cc1nn[nH]n1)NCCC1=CCCCC1	i	-1.3
COCCNC(=O)C(c1ccc(Cl)cc1)N(CCOC)C(=O)CCC(=O)Nc1nccs1 (stereo not given)	i	-1.02
O=C(CC(=O)c1ccccc1)Nc1cc([N+](=O)[O-])ccc1Cl	i	-1.26
Cc1ccc(-c2cc(C(=O)OCC(=O)N(C)C3CCS(=O)(=O)C3)c3ccccc3n2)o1 (stereo not given)	i	-1.39
CCCc1sc(N/N=C/c2ccccn2)nc1-c1ccc(Br)cc1	i	-0.02
COc1ccccc1CNC(=O)CSc1ccc(-c2ccncc2)nn1	i	-0.08
CN1/C(=C\C(=O)Nc2cccc(Cl)c2)C(C)(C)c2ccccc21	-7.13*	1.78*
O=C(C1CC1)N1N=C(c2ccc(Cl)cc2)CC1(O)C(F)(F)F (stereo not given)	i	-0.78
CC[C@@H](C)CN1C(=O)N[C@@H](c2ccccc2)C(C(C)=O)=C1C	i	1.26
CC(=O)Nc1ccccc1NC(=O)c1ccc(C)cc1C	i	2.88
CC(=O)[C@H]1CC[C@H]2[C@@H]3CCC4=CC(=O)CC[C@]4(C)[C@H]3CC[C@]12C	i	1.41
CCOC(=O)c1cc(CC)sc1/N=C/c1c(O)ccc2ccccc12	i	0.21
COc1ccccc1NC(=O)CSc1nc2ccccc2nc1N1CC(C)OC(C)C1 (stereo not given)	i	-0.45
Cc1ccc(Oc2ccc(Cl)cc2N)cc1	i	1.43
COC(=O)NNC(=O)COc1cc(C)c(Br)cc1C(C)C	i	-1.34
CN1C2CCC1/C(=C\c1ccc(F)cc1)C(=O)/C2=C/c1ccc(F)cc1	i	0.11

A second format for part of the listing above:
compound | KCNQ2 inh | KCNQ2 inh baseline
COC(=O)NNC(=O)COc1cc(C)c(Br)cc1C(C)C | i | -1.34
CN1/C(=C\C(=O)Nc2cccc(Cl)c2)C(C)(C)c2ccccc21 | -7.13* | 1.78*

(list continues)
SMILES	KCNQ2 inh	KCNQ2 inh baseline
O=C(CSc1nnc(-c2ccncc2)n1Cc1ccco1)Nc1ccccc1F	i	-0.72
O=[N+]([O-])c1cc(Cl)ccc1Sc1ccccn1	i	-0.03
COCCN(Cc1nc(-c2ccc(-c3ccccc3)cc2)oc1C)C(C)C	i	0.02
COc1ccc(S(=O)(=O)N(C)c2ccc(OC(=O)C(C)Oc3ccc(F)cc3)cc2)cc1 (stereo not given)	i	0.12
O=C(NCc1cccnc1)c1c(O)c2cccc3c2n(c1=O)CCC3	i	-1.29
OC1(CN2CCOCC2)C2CN3CCN(C2)CC1(c1ccccc1)C3 (stereo not given)	i	0.14
CCOc1cccc(NC(=O)C2CCCN(S(=O)(=O)c3ccc(-n4cnnn4)cc3)C2)c1 (stereo not given)	i	-2.18
Cc1ccccc1N(CC(=O)NCc1ccco1)C(=O)CNS(=O)(=O)c1ccc(F)cc1	i	1.7
COc1cc(C=O)ccc1OCCCCOc1ccccc1[N+](=O)[O-]	i	-0.64
C[C@H](NC(=O)OC(C)(C)C)C(=O)NCC1CCC(C(=O)O)CC1 (stereo not given in full)	i	1.72
CCOc1ccc(NC(=O)CCn2c(=S)oc3ccccc32)cc1	i	1.08
COc1cccc(C(=O)N2CCN(S(=O)(=O)Cc3ccccc3)CC2)c1	i	-1.28
O=C(COC(=O)CCc1c[nH]c2ccccc12)NCc1ccc2c(c1)OCO2	i	-0.13
S=C1Cc2ccccc2C(c2ccc(Cl)cc2)N1 (stereo not given)	i	1.85
CCC(C)NC(=O)c1c(N)n(/N=C/c2ccccn2)c2nc3ccccc3nc12 (stereo not given)	i	-0.09
COc1ccc(CN2CCN(C(=O)c3cccc4ccccc34)CC2)cc1Br	i	-1.27
O=C(CCSc1nc(-c2ccco2)cc(C(F)(F)F)n1)NCCN1CCOCC1	i	2.18
COC(=O)c1ccc(N=Nc2c(C)[nH]n(-c3ccccc3)c2=O)cc1	i	-0.02
COc1ccc(Cn2nnnc2C(c2ccc(F)cc2)N2CCN(C3CCCC3)CC2)cc1 (stereo not given)	i	1.61
COc1cccc(N2CCN(C(=O)CCSCc3ccccc3F)CC2)c1	i	-0.35
S=c1[nH]nc(COc2ccccc2)n1/N=C/c1ccncc1	i	-0.15
COc1ccccc1OCCNS(=O)(=O)c1ccc2oc3ccccc3c2c1	i	-0.62
COc1cccc(-c2nc(CS(=O)CC(=O)NCc3ccc4c(c3)OCO4)c(C)o2)c1 (stereo not given)	i	0.27
COc1ccc(C/C(N)=N/OC(=O)COc2ccccc2C)cc1	i	0.01
N#C/C(=C/c1ccc(N2CCCCC2)cc1)c1cccc(F)c1	i	-1.56
CC1(C)NC(=O)N(CC(O)CNC23CC4CC(CC(C4)C2)C3)C1=O (stereo not given)	i	0.5
CCC1(C)Cc2ccccc2-c2nc(NCCO)n(-c3ccc(C)cc3)c(=O)c21 (stereo not given)	i	-0.4
CCOC(=O)c1cn[nH]c1NC(=S)Nc1ccccc1	i	-2.07
Cc1[nH]n(-c2ccccc2)c(=O)c1C=Nc1ccc(S(=O)(=O)NC(N)=O)cc1	i	-0.56
COc1ccc(S(=O)(=O)NC(CC(=O)NCc2ccco2)c2ccco2)cc1 (stereo not given)	i	0.09
Cc1cccc(/C=C/c2onc(C)c2S(=O)(=O)N2CCC(C(=O)NC(C)(C)C)CC2)c1	i	0.53
COc1ccc(C(=O)C2CCCN(S(=O)(=O)c3ccc(C(C)=O)cc3)C2)c(C)c1 (stereo not given)	i	0.06
CCOC(=O)Cc1csc(NC(=O)c2ccc(Br)cc2)n1	i	1.11
CC(C)(C)c1ccc(C(=O)NNC(=O)CCc2ccccc2)cc1	i	0.11
COc1ccc(CNc2ccccc2)cc1Br	i	1.92
CCOC(=O)c1ccc(NC(=O)c2nc[nH]c2C(=O)NCC(=O)OC(C)(C)C)cc1	i	0.1

Not all compounds are listed, so the mix of outcomes need not match the whole.
